Choline anaer gr – inhibitors of anaerobic choline-dependent gram-negative bacterial growth; Gram-negative bacterium anaerobic choline minimal medium, absorbance growth; hits give low values; many inactives read as strong as hits in the columns shown; calls only; 55,000 compounds, 0.2% hits; AID 1963822;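 active means growth z-score on choline under -2 at 7 or 20 h with little or no fall on glycerol, limits in tiers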;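 further: stock transfer was 300 nL into about 50 µL; the organism is E. coli; final concentration not given here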
Choline anaer gr early – second read-out of Choline anaer gr, no call of its own (marks repeat the call); z-score; measured here: choline growth z-score, timepoint 1;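 score of optical density at 7 h as mean of two plates; lower means less growth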
Starred values were filed as active, the others as inactive; i = inactive; & = joins results of further samples. An excerpt; the hit share may differ from the screen's.

Choline anaer gr,Choline anaer gr early,Molecule
i,0.79,O=S(=O)(c1ccc2nc(Nc3ccc(F)c(Cl)c3)ccc2c1)N1CCOCC1
i,-1.6,Cc1noc2nc(CCC(=O)NCCC3=CCCCC3)nc(N3CCOCC3)c12
i,0.12,Cc1ccc2[nH]c3c(=O)n(CCC(=O)NCCc4ccc(S(N)(=O)=O)cc4)cnc3c2c1
i,-0.19,Cc1nn(-c2cc(N3CCCC3)ncn2)c(C)c1CCC(=O)NCCC(C)C
i,-0.09,Cc1nc2ncnn2c(Sc2ccc(NS(=O)(=O)c3ccc(C(C)(C)C)cc3)cc2)c1C
i,1.53,O=C(c1nc(-c2ccc(S(=O)(=O)N3CCCC3)cc2)no1)N1CCCC1
i,0.64,COc1ccc(-c2cc3c(SCC(=O)NC4CCCC4)nccn3n2)cc1
i,1.99,CC(=O)OCc1cnc(C)c2oc(=O)c(C(=O)NCc3ccccc3Cl)cc12
i,0.3,O=C(c1ccc(Br)cc1)N1CCC(c2nc(-c3ccc(Cl)cc3)no2)CC1
i,-0.19,COc1ccc(OC)c(S(=O)(=O)N(C)CC2(C)CCOCC2)c1
i,-0.02,COc1cc(NC(=O)Nc2nnc(CC(=O)N3CCCC3)s2)cc(OC)c1
i,-0.11,O=C(c1cc(-c2ccncc2)n[nH]1)N1CCCC(C(=O)N2CCc3ccccc32)C1 (stereo not given)
i,0.16,CCC(C(=O)Nc1cccc2nsnc12)N1C(=O)COc2ccccc21 (stereo not given)
i,-1.86,Cc1nonc1NC(=O)c1cccc(Cl)c1
i,0.49,O=c1[nH]cnc2c1sc1nc(-c3ccccc3)ccc12
i,0.38,O=C(Cc1csc(NC(=O)Nc2ccccc2)n1)Nc1cccc(Cl)c1
i,0.52,FC(F)(Cl)C(F)(F)Cl
i,-1.22,Cc1cc2nc(COc3cc(Cl)ccc3NC(=O)CN3C(=O)c4ccccc4C3=O)cc(=O)n2o1
i,-0.65,CCNC(=O)N1CCCC(c2cccc(C(=O)NCC3CCCO3)c2)C1 (stereo not given)
i,0.94,O=C(C1CCC1)N1CCCc2cc(S(=O)(=O)N3CCc4ccccc4C3)ccc21
i,-1.28,CCSc1nccn2nc(-c3cccs3)cc12
i,-0.24,Nc1nc2c(ncn2[C@@H]2O[C@H](CO)[C@@H](O)[C@@H]2O)c(=O)[nH]1
i,0.92,Cc1ccc(Cn2cccc(S(=O)(=O)N3CCCC3)c2=O)cc1
i,0.61,CCCC1C(=O)N2C(N(C)C)=Nc3ccc(C)cc3N2C1=O (stereo not given)
i,-0.32,O=S(=O)(c1ccc(F)cc1F)N1CCC(N2CCOCC2)CC1
i,-0.36,CCn1c(CCc2cccc(NS(=O)(=O)c3cc(C)ccc3NC(C)=O)c2)nc2ccccc21
i,-0.4,O=S(=O)(Cc1ccccc1)N1CCCC1c1ccccc1F (stereo not given)
i,0.28,CN(C)c1cnccn1
i,-0.9,Cc1ccc(NC(=O)N2CCc3c([nH]c4ccccc34)C2c2cccnc2)cc1C (stereo not given)
i,0.08,O=C1CC(c2ccc(F)c(Br)c2)c2cnn(-c3nc4ccccc4s3)c2N1 (stereo not given)
i,1.1,CCOc1ccc(-c2noc(Cc3nc(-c4cccc(OC)c4)cs3)n2)cc1
i,1,CCOc1ccc(-c2nc(CN3CCN(C(=O)Nc4cc(C)ccc4C)CC3)c(C)o2)cc1
i,-1.11,COc1cc(OC)cc(-c2noc(Cn3c(=O)[nH]c4cc5c(cc4c3=O)OCO5)n2)c1
i,-0.88,O=C(C1CCN(c2cncnc2N2CCOCC2)CC1)N1CCCC1
i,-2.02,Cc1ccc2c(c1)-c1c(cnc3cc(-c4ccc(Cl)cc4)nn13)CO2
i,1.32,CN(C)c1ccc(NS(=O)(=O)c2ccc(N3C(=O)CCS3(=O)=O)cc2)cc1
i,0.82,CCOC(=O)C(CC)Oc1cc(O)c2c(=O)cc(-c3ccccc3)oc2c1 (stereo not given)
i,0.1,O=C(Nc1cccc(F)c1)C1CC(=O)N(CCc2c[nH]c3ccc(F)cc23)C1 (stereo not given)
i,1.11,COc1ccc(NC(=O)CSc2nc3ccccc3nc2N2CCC(C)CC2)cc1
i,0.76,CCOC(=O)c1ccccc1NC(=O)CSc1[nH]c2ccccc2c(=O)c1C(=O)OC
i,2.16,O=C(COc1ccccc1)Nc1cccc(-c2nc(-c3ccccc3)no2)c1
i,0.47,Cc1ccc(C(=O)NCC(c2ccc3c(c2)OCO3)N2CCN(c3ccccc3F)CC2)cc1 (stereo not given)
i,-0.79,COc1ccccc1NS(=O)(=O)c1cc(N2C(=O)CCS2(=O)=O)ccc1OC
i,0.28,Cc1ccc2[nH]c3c(=O)n(CC(=O)NCc4ccccc4F)cnc3c2c1
i,-1.03,CCSc1nn(CC(=O)Nc2cccc(CC)c2)c(N)c1S(=O)(=O)c1ccc(C)cc1
i,0.4,CCC(=O)O[C@@]1(C(=O)CCl)C(C)C[C@H]2[C@@H]3CC(F)C4=CC(=O)C=C[C@]4(C)[C@]3(F)C(O)C[C@@]21C (stereo not given in full)
i,-0.38,COc1cc2c(cc1OC)CN(C(=O)c1cccc(N3C(=O)C(C)(C)CS3(=O)=O)c1)CC2
i,-0.27,Cc1ccc2c(c1)cc(C(=O)Nc1sc3c(c1C(N)=O)CCCC3)n2C
i,1.08,COc1ccc(-c2nn3c(Nc4ccccc4)cc(C)nc3c2C)cc1OC
i,1.04,CC(C)NC(=O)NC1CCN(C(=O)C2CCCC2)C1 (stereo not given)

(next part)
Choline anaer gr,Choline anaer gr early,Molecule
i,-2.44,CCCCC(=O)Nc1cc(-c2ccccc2)nn1-c1ccccc1
i,0.64,Cc1cccc(NC(=O)COc2ccc(-c3cnc4ccccc4n3)cc2)c1
i,1.61,CCCc1nc2ccccc2n1CC(O)COc1ccc(C(C)C)cc1 (stereo not given)
i,0.17,Clc1ccc(Nc2c3c(nc4ncnn24)CCC3)cc1
i,0.47,O=C(CN1N=C(c2ccccc2F)c2cc(Cl)ccc2S1(=O)=O)NC1CCCCC1
i,-1.43,CCCNC(=O)c1ccc2c(c1)CCN2S(C)(=O)=O
i,-0.85,CCC(=O)Nc1ccccc1-c1nnc(SC(CC)C(=O)Nc2cccc(C)c2C)[nH]c1=O (stereo not given)
i,-1.47,CCCNC(=O)Cc1c(C)nc2nc(C3CCCCC3)nn2c1C
i,0,CCCn1c(SCc2cc(=O)n3ccccc3n2)nc2c(-c3ccccc3)cn(C)c2c1=O
i,-0.94,CCCCNC(=O)Cc1csc(NC(=O)C2CC2)n1
i,0.46,O=C(c1cc2n(n1)CCCN(Cc1ccc(F)cc1)C2=O)N1CCN(c2ccccn2)CC1
i,1.1,Cc1ccc(N2CCN(C(=O)CCS(=O)(=O)c3ccc4c(c3)NC(=O)CO4)CC2)c(C)c1
i,0.65,COc1ccc(CC(=O)Nc2ccc(SCc3nnc(-c4ccccc4)o3)cc2)cc1
i,-0.07,O=C(Nc1ccc2c(c1)OCO2)n1ncc2cc(Cl)ccc21
i,0.43,Cc1cccc2sc(N3CCN(C(=O)c4ccc5c(c4)OCCO5)CC3)nc12
i,-1.28,CCCCC[C@H](O)C/C=C1/C(=O)C[C@H](O)[C@@H]1C/C=C\CCCC(=O)O
i,-1.9,O=C(c1cnc2ccc(Cl)cc2c1S(=O)(=O)c1ccc(Br)cc1)N1CCSCC1
i,0.76,Cc1nn(-c2ccccc2)cc1C(=O)N1CCC(CC(=O)NCCc2c[nH]c3ccccc23)CC1
i,0.64,CN(C(=O)Cn1nc(C(=O)N2CCCC2)ccc1=O)C1CCCCC1
i,0.14,CC(C)NC(=O)C1CCCN(C(=O)c2ccc(NS(=O)(=O)c3ccc4c(c3)CCCC4)cc2)C1 (stereo not given)
i,-0.53,CN(C)CC/C=C1\c2ccccc2CSc2ccccc21
i,-0.19,Cc1ccc(-c2ccc(N3CCCC3)nn2)cc1S(=O)(=O)N1CCCC1
i,-2.87,Oc1c(Cl)cc(Cl)c(Cl)c1Cc1c(O)c(Cl)cc(Cl)c1Cl
i,1.44,COc1cccc(CN2C(=O)c3ccccc3Sc3ccc(C(=O)NCCCN4CCC(C)CC4)cc32)c1
i,0.93,NC(=O)c1ccccc1NC(=O)c1c(-c2ccccc2)nnc2ccccc12

By substructure: the entries above containing an NH in an aromatic ring.
Choline anaer gr,Choline anaer gr early,Molecule
i,0.12,Cc1ccc2[nH]c3c(=O)n(CCC(=O)NCCc4ccc(S(N)(=O)=O)cc4)cnc3c2c1
i,-0.11,O=C(c1cc(-c2ccncc2)n[nH]1)N1CCCC(C(=O)N2CCc3ccccc32)C1 (stereo not given)
i,0.49,O=c1[nH]cnc2c1sc1nc(-c3ccccc3)ccc12
i,-0.24,Nc1nc2c(ncn2[C@@H]2O[C@H](CO)[C@@H](O)[C@@H]2O)c(=O)[nH]1
i,-0.9,Cc1ccc(NC(=O)N2CCc3c([nH]c4ccccc34)C2c2cccnc2)cc1C (stereo not given)
i,-1.11,COc1cc(OC)cc(-c2noc(Cn3c(=O)[nH]c4cc5c(cc4c3=O)OCO5)n2)c1
i,0.1,O=C(Nc1cccc(F)c1)C1CC(=O)N(CCc2c[nH]c3ccc(F)cc23)C1 (stereo not given)
i,0.76,CCOC(=O)c1ccccc1NC(=O)CSc1[nH]c2ccccc2c(=O)c1C(=O)OC
i,0.28,Cc1ccc2[nH]c3c(=O)n(CC(=O)NCc4ccccc4F)cnc3c2c1
i,-0.85,CCC(=O)Nc1ccccc1-c1nnc(SC(CC)C(=O)Nc2cccc(C)c2C)[nH]c1=O (stereo not given)
i,0.76,Cc1nn(-c2ccccc2)cc1C(=O)N1CCC(CC(=O)NCCc2c[nH]c3ccccc23)CC1

The list goes on:
Choline anaer gr,Choline anaer gr early,Molecule
i,0.7,O=S(=O)(Nc1cccc(-c2nc(-c3cccc(Br)c3)co2)c1)c1ccccc1
i,-0.79,O=C(CN1CCN(C(=O)c2sc3ncccc3c2-n2cccc2)CC1)N1CCCCC1
i,0.24,CCOC(=O)c1nc(NC2CCCC2)c2c(-c3ccc(F)cc3)noc2n1
i,0.09,COc1cccc(S(=O)(=O)N2CCN(Cc3nc4cccnc4n3-c3ccccc3)CC2)c1
i,0.28,COc1cccc(CSc2nc3ccncc3n2Cc2ccccc2)c1
i,0.06,CCc1ccc(C2=C(C)C(=O)N(CC(=O)Nc3ccc(C(C)C)cc3)S2(=O)=O)cc1
i,-1.27,CC(C)Cc1nnc2sc(-c3cc4ccccc4[nH]3)nn12
i,0.54,CCCn1c(=O)c2ccc(C(=O)NC(C)C)cc2n2c(SCC(=O)NCc3ccccc3)nnc12
i,0.71,O=C(c1noc2ccc(S(=O)(=O)N3CCn4c3nc3ccccc34)cc12)N1CCCC1
i,-0.29,Cc1ccc(-c2ccc(N3CCCC(C(=O)NCc4ccc5c(c4)OCO5)C3)nn2)cc1 (stereo not given)
i,0.93&1.24&0.65&0.58,CC[C@H](C)C(=O)O[C@H]1C[C@@H](C)C=C2C=C[C@H](C)[C@H](CC[C@@H]3C[C@@H](O)CC(=O)O3)[C@H]21
i,-0.46,Cc1noc2nc(CCC(=O)O)nc(N3CCCCC3)c12
i,0.28,Cc1ccc(/C=C/c2nc(Cn3c(C)nc4ccccc4c3=O)no2)cc1
i,0.54,CCn1nccc1C1CCCN1S(=O)(=O)c1ccc(C(C)C)cc1 (stereo not given)
i,0.39,COCCCCC(=NOCCN)c1ccc(C(F)(F)F)cc1
i,-0.49,Cc1cc(-c2ccc(C)c(S(=O)(=O)Nc3ccc(F)c(F)c3)c2)n[nH]1
i,0.69,Cc1nc(-c2cc(S(=O)(=O)N3CCN(c4ccc(F)cc4)CC3)c(C)s2)sc1C
i,0.24,COc1ccc(CCNC(=O)CCc2nc(-c3ccc(N4CCCC4)cc3)no2)cc1OC
i,-0.76,CC(=O)N1N=C(c2c(O)n(C)c(=S)n(C)c2=O)CC1c1ccc(Br)cc1 (stereo not given)
i,-2.19,Cc1sc(C)c(S(=O)(=O)Nc2ccc(F)cc2)c1-c1cc(C(F)(F)F)on1
i,0.44,COc1ccc(NC(=O)C2CCCN(S(=O)(=O)c3cc(-c4noc(C)n4)sc3C)C2)cc1 (stereo not given)
i,-0.45,Cc1ccccc1CN1CCCN(CC(=O)NC(C)CCc2ccccc2)S1(=O)=O (stereo not given)
i,0.32,O=C(C1CCN(c2nccc3c2ccn3Cc2ccccc2)CC1)N1CCN(c2ccccc2F)CC1
i,0.86,CC(C)Cn1cnc2nc(CSc3ccccc3NC(=O)C3CCCCC3)cc(=O)n21
i,-1.23,O=C1NCCCn2nc(C3CCN(C(=O)Nc4ccc(F)cc4)CC3)cc21
i,-1.64&-1.01&-0.25&-2.3,Nc1nnc(-c2cccc(Cl)c2Cl)c(N)n1
i,-0.14,C1=C(CCNc2ncccc2-c2nnc(-c3ccccc3)o2)CCCC1
i,-1.19,O=C(NCC1CCCO1)c1ccc(N2CCNCC2)c(NS(=O)(=O)c2ccc3c(c2)CCCC3)c1 (stereo not given)
i,2.05,Cc1cc(-c2c(C)sc(C)c2S(=O)(=O)N2CC=C(c3ccccc3)CC2)n[nH]1
i,0.17,COc1ccc(NC(=O)/C=C/c2ccc(Cl)cc2)cc1
i,0.58,COc1ccc(C2C=C(c3ccc(Cl)cc3)Nc3nc(N4C(=O)CCC4=O)nn32)cc1 (stereo not given)
i,-0.48,Cc1ccc(-c2noc3ncnc(N4CCOCC4)c23)cc1
i,-0.92,Cc1[nH]nc(-c2c(C)sc(C)c2S(=O)(=O)NCC(C)c2ccccc2)c1C (stereo not given)
i,0.33,CCc1nnc(-c2csc(S(=O)(=O)N3CCC(C)CC3)c2)o1
i,1.73,O=C(C1=CN(c2cccc(Cl)c2)c2cc(F)ccc2S1(=O)=O)c1ccccc1
i,0.64,O=C(CCSCc1ccco1)NNC(=O)N1Cc2ccccc2Oc2ccc(Cl)cc21

One compound at a time (already shown).
Cc1ccc(-c2noc3ncnc(N4CCOCC4)c23)cc1 in the list: Choline anaer gr = i; Choline anaer gr early = -0.48
Cc1[nH]nc(-c2c(C)sc(C)c2S(=O)(=O)NCC(C)c2ccccc2)c1C (stereo not given) in the list: Choline anaer gr = i; Choline anaer gr early = -0.92

From PubChem BioAssay
